Screening data: PubChem BioAssay, several laboratories
Ecoli growth = inhibitors of Escherichia coli growth | OD600, 23 h; stronger effect = lower value | actives 0.21% (n = 330,000) | OD600 absorbance (no concentration beside the values) | AID 1053175;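 active = OD600 absorbance below the run mean of sample wells minus 3.6 SD, in any replicate, cut at about 0.56 in these data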;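 note: stock transfer was 300 nL into about 60 µL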
Bfl-1 A1 inh = inhibitors of the anti-apoptotic protein A1, read as caspase activation | MEF A1-2A-BIM cells, Caspase-Glo 3/7 luminescence, 3 h; percent of clofoctol response, vehicle zero | caspase activation, % (no concentration beside the values) | actives 0.066% (n = 330,000);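 active = over half of replicate activation scores above 10%, or exactly half above 10 with the replicate mean above 10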;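 note: wells of about 30 µL received 50 nL stock; many hits fall short of the cut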
Ecoli rRNA inh = inhibitors of bacterial rRNA selective over humanized ribosomes; E. coli WT GFP vs humanized-ribosome RFP mutants, fluorescence, 24 h; stronger effect = lower value; DMSO median 0, no signal -100; GFP signal change (wild-type ribosome), % (test concentration not listed); actives 1.6% (n = 350,000);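 active = significant combined selectivity score with lowered wild-type GFP, culture density cut under 30%, mutant RFP and density less affected; inactive = any of these conditions unmet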; note: one replicate is shown; some compounds called inactive have numbers as strong as hits
UCH37 DUB inh = human UCH37 deubiquitinating enzyme inhibition. actives 0.33% (n = 330,000). inhibition, % (test concentration not listed). purified proteasome/UCH37, Ub-AMC cleavage fluorescence;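 active = mean of two replicates above 20%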;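 note: 0% = compound-free wells with enzyme and 100% = wells lacking proteasome; stock transfer was 100 nL into about 20 µL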
Target sequence (Q9Y5K5 whole entry, looked up): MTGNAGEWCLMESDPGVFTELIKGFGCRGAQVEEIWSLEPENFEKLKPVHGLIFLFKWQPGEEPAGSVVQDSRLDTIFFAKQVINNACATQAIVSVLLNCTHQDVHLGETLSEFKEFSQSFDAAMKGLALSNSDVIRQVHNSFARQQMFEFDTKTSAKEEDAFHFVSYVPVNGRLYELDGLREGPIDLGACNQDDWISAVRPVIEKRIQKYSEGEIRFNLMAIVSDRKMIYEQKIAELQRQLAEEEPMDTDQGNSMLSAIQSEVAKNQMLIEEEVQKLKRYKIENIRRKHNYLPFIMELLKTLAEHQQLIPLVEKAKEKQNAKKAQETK
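Test system – human UCH37 enzyme supplied as purified proteasome complex · Incubation – 30 min preincubation with enzyme, 25 min cleavage at room temperature · Detection – AMC fluorescence from Ub-AMC cleavage, excitation 355 nm, emission 460 nm · Benchmarks – no-proteasome wells (full inhibition) and compound-free wells (no inhibition)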
Beta apoptosis = beta cell apoptosis inhibition. INS-1E cytokine-induced death, ATP luminescence, 48 h; percent of positive-control rescue, neutral wells zero. protection from apoptosis, % (concentration not given with the values). AID 435005. actives 0.8% (n = 300,000);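 active = all replicates at 75% or more, or half of them and the mean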;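 note: 0% = cytokine-treated negative control wells and 100% = positive control rescue; higher means more ATP so stronger rescue from cytokine killing; wells of about 40 µL received 100 nL stock; the first replicate is given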
FGF22 binding = FGF22 (human) thermal shift binding | actives 1.5% (n = 340,000) | recombinant FGF22 thermal shift, SYPRO orange fluorescence; percent of sucrose octasulfate shift, DMSO zero | calls only at 9.99 µM | AID 651658;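 active = melting point raised past a set limit in the mean and every replicate; three in four hits are not shown here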
Target sequence (Q9HCT0 whole entry, looked up): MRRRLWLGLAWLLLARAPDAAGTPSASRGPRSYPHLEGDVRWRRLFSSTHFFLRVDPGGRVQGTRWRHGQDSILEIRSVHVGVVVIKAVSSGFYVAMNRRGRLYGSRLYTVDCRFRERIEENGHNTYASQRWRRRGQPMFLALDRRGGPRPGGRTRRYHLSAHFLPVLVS
T cruzi repl = T. cruzi replication inhibition; inhibition, % (concentration not given with the values); T. cruzi beta-gal in NIH3T3, luminescence, 90 h; AID 1885; actives 1.4% (n = 300,000);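 active = mean inhibition across valid replicates above about 55%, limit read from the data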;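 note: signal also drops with host cell toxicity which is not excluded here; 0% = plate median of DMSO wells and 100% = zero luminescence signal; higher percent means less beta-gal luminescence so fewer parasites; stock transfer was 50 nL into about 50 µL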
Ecoli rRNA inh OD600 = also measured in Ecoli rRNA inh; calls as there; OD600 change, %; measured here: OD600 growth;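 optical density of the mix in the first replicate; 0 = DMSO median and -100 = no signal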
Ecoli rRNA inh RFP = recorded beside Ecoli rRNA inh, whose call it bears; RFP signal change, %; measured here: RFP humanized mutant strains;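 first replicate; 0 = DMSO median and -100 = no signal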
Starred values were filed as active, the others as inactive; i = inactive; . = not tested or not shown; & = joins results of further samples.

entry	molecule	Ecoli growth	Bfl-1 A1 inh	Ecoli rRNA inh	Ecoli rRNA inh OD600	Ecoli rRNA inh RFP
1	NC(Cc1cc(O)c(O)cc1O)C(=O)O (stereo not drawn)	.	0.6	.	.	.
2	c1ccc(-c2[nH]c[n+](CC3CO3)c2-c2ccccc2)cc1 (stereo not drawn)	.	0.5	.	.	.
3	Cn1c(O)c(C(c2ccccn2)c2c(O)n(C)c(=S)[nH]c2=O)c(=O)[nH]c1=S	.	0.3	.	.	.
4	O=C(N/N=C1/CN2CCC1CC2)c1cc2ccccc2cc1O	.	-0.9	.	.	.
5	CC(=O)O[C@@H]1/C=C/[C@](C)(O)C[C@@H](C)C/C=C/[C@H]2[C@@H]3O[C@]3(C)[C@@H](C)[C@H]3[C@H](Cc4ccccc4)NC(=O)[C@@]312	.	6.4*	.	.	.
6	C/C(CC(c1ccccc1)c1c(O)c2ccccc2oc1=O)=N\NC(N)=S (stereo not drawn)	.	-1.0	.	.	.
7	Cc1ccc(N2C(=O)/C(=C/c3ccc(CN(CCC#N)S(C)(=O)=O)o3)C(=O)NC2=S)cc1C	.	0.7	.	.	.
8	Cc1ccc(-n2c(-c3cccs3)nc3ccccc3c2=O)cc1	.	0.4	.	.	.
9	O=C1NC(=O)N(c2ccccc2)C(=O)/C1=C\c1ccc2c3c(cccc13)CC2	.	1.2	.	.	.
10	N/C(=N\N=C\c1ccc(O)cc1O)N[N+](=O)[O-]	.	-8.4	.	.	.

entry	UCH37 DUB inh	Beta apoptosis	FGF22 binding	T cruzi repl
1	.	-4	.	.
2	.	-18	.	.
3	.	3	.	-18
4	.	-8	.	-20
5	.	19	.	18
6	.	3	.	-8
7	.	-10	.	-4
8	.	-9	.	21
9	.	-7	.	-10
10	.	1	.	-20

Next section
entry	molecule	Ecoli growth	Bfl-1 A1 inh	Ecoli rRNA inh	Ecoli rRNA inh OD600	Ecoli rRNA inh RFP
11	CC[C@H](C)/C=C(C)/C=C/C1=CC2=C(Cl)C(=O)[C@@](C)(OC(C)=O)C(=O)C2=CO1	.	1.0	.	.	.
12	O=C1NC(=O)C(=C/C=C/c2coc3ccc(Br)cc3c2=O)C(=O)N1	.	0.1	.	.	.
13	CC(C)(C#CCCCCC#CC(C)(C)[N+](C)(C)C)[N+](C)(C)C	.	0.1	.	.	.
14	CN(C=O)CP(=O)(O)CN(C)C=O	.	0.1	.	.	.
15	Cc1cccc(C(=O)Nc2ccc3c(c2)CC2(C(=O)N(C)C(=O)N(C)C2=O)C2CCCN32)c1 (stereo not drawn)	.	-1.0	.	.	.
16	CCN1C(=O)NC(=O)/C(=C\c2cn(CC(=O)O)c3ccccc23)C1=O	.	1.6	.	.	.
17	CC(=O)O[C@@H]1/C=C/[C@](C)(O)C[C@@H](C)C/C=C/[C@H]2[C@H](O)C(C)=C(C)[C@H]3[C@H](Cc4ccccc4)NC(=O)[C@@]123	.	0.3	.	.	.
18	CN(C)CCc1nc2ccccc2c(=O)n1-c1ccccc1	.	0.2	.	.	.
19	COC(=O)N1CCN(C(=O)Cc2ccc(Cl)c(Cl)c2)C(CN2CCCC2)C1 (stereo not drawn)	.	-0.1	.	.	.
20	Cc1c(/C=N/O)c2ccccc2n1C	.	0.5	.	.	.

entry	UCH37 DUB inh	Beta apoptosis	FGF22 binding	T cruzi repl
11	.	2	.	5
12	.	-4	.	3
13	.	-8	.	-3
14	.	2	.	-11
15	.	-3	.	14
16	.	-2	.	-12
17	.	8	.	28
18	.	-1	.	12
19	.	1	.	1
20	.	-1	.	-11

Compound profiles (already shown). Order of values: Ecoli growth | Bfl-1 A1 inh | Ecoli rRNA inh | Ecoli rRNA inh OD600 | Ecoli rRNA inh RFP | UCH37 DUB inh | Beta apoptosis | FGF22 binding | T cruzi repl
Record of N/C(=N\N=C\c1ccc(O)cc1O)N[N+](=O)[O-] : . | -8.4 | . | . | . | . | 1 | . | -20
Record of CC[C@H](C)/C=C(C)/C=C/C1=CC2=C(Cl)C(=O)[C@@](C)(OC(C)=O)C(=O)C2=CO1 : . | 1.0 | . | . | . | . | 2 | . | 5

The results go on:
entry	molecule	Ecoli growth	Bfl-1 A1 inh	Ecoli rRNA inh	Ecoli rRNA inh OD600	Ecoli rRNA inh RFP
21	Clc1ccc2c(c1)C(c1ccccc1Cl)=NCc1nnc(N3CCN(CCSc4ccccc4)CC3)n1-2	.	0.8	.	.	.
22	CN1CCN(c2ccc([N+](=O)[O-])c(N/N=C3\CN4CCC3CC4)c2)CC1	.	-0.7	.	.	.
23	O=c1[nH]c(=O)n(-c2ccc(Cl)cc2)c(O)c1C=Nc1ccc(S(=O)(=O)Nc2nccs2)cc1	.	0.3	.	.	.
24	O=C1NC(=O)N(c2ccccc2)C(=O)/C1=C/c1ccc2c(c1)Cc1ccccc1-2	.	-0.2	.	.	.
25	O=C(N/N=C/c1c(O)n(Cc2ccccc2)c(=O)[nH]c1=O)c1ccccc1	.	0.6	.	.	.
26	C[C@H]1CCCC=C[C@@H]2C[C@H](O)C[C@H]2[C@H](O)C=CC(=O)O1	.	.	.	.	.
27	COc1ccc(C(Nc2ccccc2)P(=O)(Oc2ccccc2)Oc2ccccc2)cc1 (stereo not drawn)	.	0.1	.	.	.
28	CC(C)(O)[C@@H]1[C@H]2OC(=O)[C@@H]1[C@]1(O)C[C@H]3O[C@]34C(=O)O[C@H]2[C@]14C (tested in a mixture with another compound)	.	1.2	.	.	.
29	N#Cc1ccc2nc(-c3ccc(CN4CCC(n5c(=O)[nH]c6cc(Cl)ccc65)CC4)cc3)c(-c3ccccc3)nc2c1	.	.	.	.	.
30	CC(C)NC(=O)N1C[C@@H]2N[C@H](C1)C2c1ccc(Br)cc1 (stereo partly drawn)	.	.	3&2	0&2	0.8&-0.3

entry	UCH37 DUB inh	Beta apoptosis	FGF22 binding	T cruzi repl
21	.	1	.	30
22	.	-5	.	40
23	.	-10	.	-23
24	.	2	.	-14
25	.	-9	.	-15
26	4.7	.	.	.
27	1.8	.	.	4
28	0.6	.	.	-25
29	.	.	i	.
30	.	.	.	.

Six entries from above, with one line to a screen.
#24 O=C1NC(=O)N(c2ccccc2)C(=O)/C1=C/c1ccc2c(c1)Cc1ccccc1-2
#25 O=C(N/N=C/c1c(O)n(Cc2ccccc2)c(=O)[nH]c1=O)c1ccccc1
#26 C[C@H]1CCCC=C[C@@H]2C[C@H](O)C[C@H]2[C@H](O)C=CC(=O)O1
#27 COc1ccc(C(Nc2ccccc2)P(=O)(Oc2ccccc2)Oc2ccccc2)cc1 (stereo not drawn)
#28 CC(C)(O)[C@@H]1[C@H]2OC(=O)[C@@H]1[C@]1(O)C[C@H]3O[C@]34C(=O)O[C@H]2[C@]14C (tested in a mixture with another compound)
#29 N#Cc1ccc2nc(-c3ccc(CN4CCC(n5c(=O)[nH]c6cc(Cl)ccc65)CC4)cc3)c(-c3ccccc3)nc2c1

screen / no.	24	25	26	27	28	29
Ecoli growth	.	.	.	.	.	.
Bfl-1 A1 inh	-0.2	0.6	.	0.1	1.2	.
Ecoli rRNA inh	.	.	.	.	.	.
Ecoli rRNA inh OD600	.	.	.	.	.	.
Ecoli rRNA inh RFP	.	.	.	.	.	.
UCH37 DUB inh	.	.	4.7	1.8	0.6	.
Beta apoptosis	2	-9	.	.	.	.
FGF22 binding	.	.	.	.	.	i
T cruzi repl	-14	-15	.	4	-25	.

(continued)
entry	molecule	Ecoli growth	Bfl-1 A1 inh	Ecoli rRNA inh	Ecoli rRNA inh OD600	Ecoli rRNA inh RFP
31	CS(=O)(=O)N1C[C@@H]2C(c3ccccc3)[C@H](C1)N2CC1CC1 (stereo partly drawn)	.	.	0&-5	-4&1	-1.5&-3.1
32	CC(C)NC(=O)N1C[C@@H]2C(c3ccc(Br)cc3)[C@H](C1)N2C (stereo partly drawn)	.	.	0&1	7&10	1.1&-1.3
33	CC(C)NC(=O)N1C[C@@H]2N[C@H](C1)C2c1ccccc1 (stereo partly drawn)	.	.	1&-3	0&-8	-1.2&1.0
34	CN1[C@@H]2CN(CC(F)(F)F)C[C@H]1C2c1ccc(Br)cc1 (stereo partly drawn)	.	.	-4	-4	0.3
35	CC(C)NC(=O)N1C[C@@H]2C(c3ccccc3)[C@H](C1)N2C (stereo partly drawn)	.	.	-2	0	0.7
36	COc1cccc(-c2ccc3n(c2=O)C[C@H]2[C@H](CO)[C@@H](C(=O)O)[C@@H]3N2Cc2ccccc2F)c1	.	.	-3	4	-1.5
37	COC(=O)[C@@H]1[C@@H](CO)[C@@H]2Cn3c(ccc(-c4ccccc4)c3=O)[C@H]1N2C(=O)c1ccccc1F	.	.	0	2	-1.4
38	C=CCN1[C@@H]2CN(C(=O)NC(C)C)C[C@H]1C2c1ccc(Br)cc1 (stereo partly drawn)	.	.	0&-5	9&-3	-1.3&-0.9
39	CC(=O)N1C[C@@H]2N[C@H](C1)C2c1ccccc1 (stereo partly drawn)	.	.	0&5	-1&4	-2.9&-0.5
40	C[C@H](CO)N1C[C@H](C)[C@H](CN(C)C(=O)Oc2cccc3ccccc23)OCc2cn(nn2)CCCC1=O	.	.	-1	-2	-0.8

entry	UCH37 DUB inh	Beta apoptosis	FGF22 binding	T cruzi repl
31	.	.	.	.
32	.	.	.	.
33	.	.	.	.
34	.	.	.	.
35	.	.	.	.
36	.	.	.	.
37	.	.	.	.
38	.	.	.	.
39	.	.	.	.
40	.	.	.	.

Later entries.
entry	molecule	Ecoli growth	Bfl-1 A1 inh	Ecoli rRNA inh	Ecoli rRNA inh OD600	Ecoli rRNA inh RFP
41	C[C@H]1CN([C@@H](C)CO)C(=O)CCCn2cc(nn2)CO[C@H]1CN(C)C(=O)Oc1cccc2ccccc12	.	.	-5	-5	-2.4
42	Nc1ccccc1C(=O)OCC(=O)N1CCc2ccccc21	.	.	5	3	3.6
43	C=C(C=O)C[C@@H]1C[C@H](O)C2OC3C[C@]4(C)OC5/C=C\CC6OC7C(CC=CCC6OC5CCCC4OC3CC2O1)OC1CC2OC3CC(=O)OC3C[C@@H](C)C[C@@]2(C)OC1C[C@@H]7C (stereo partly drawn)	.	.	.	.	.
44	CCC1C=CC=CC[C@H](C)[C@@H](O)[C@](C)(O)C(=O)[C@@H](C)[C@H](O)[C@@H](C)C(=O)[C@H](C)[C@@H](O)[C@H](C)C=CC(=O)OC2[C@@H](C)C(CC1)OC1(CC[C@@H](C)C(C[C@H](C)O)O1)[C@@H]2C (stereo partly drawn)	.	-0.9	.	.	.
45	COC(=O)C1=C(c2cc3ccccc3s2)CC2CCC1N2C(=O)NCCO (stereo not drawn)	0.67	.	.	.	.
46	COC(=O)C1=C(c2cc3ccccc3s2)CC2CCC1N2C(=O)NCCNC(C)=O (stereo not drawn)	0.69	.	.	.	.

entry	UCH37 DUB inh	Beta apoptosis	FGF22 binding	T cruzi repl
41	.	.	.	.
42	.	.	.	19
43	1.4	124*	.	33
44	-1.5	104*	.	.
45	.	.	.	.
46	.	.	.	.

Only part of the results is shown; the hit share may differ from the screen's.
